Screens as filed in PubChem.
Bfl-1 A1 inh = inhibitors of the anti-apoptotic protein A1, read as caspase activation; AID 2462; 0.066% of 330,000 active; caspase activation, % (test concentration not listed); MEF A1-2A-BIM cells, Caspase-Glo 3/7 luminescence, 3 h; percent of clofoctol response, vehicle zero;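 active = over half of replicate activation scores above 10%, or exactly half above 10 with the replicate mean above 10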;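 note: wells of about 30 µL received 50 nL stock; many hits fall short of the cut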
E coli growth = inhibitors of Escherichia coli growth; OD600, 23 h; hits give low values; OD600 absorbance (concentration not given with the values); 0.21% of 330,000 active;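 active = OD600 absorbance below the run mean of sample wells minus 3.6 SD, in any replicate, cut at about 0.56 in these data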;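 note: stock transfer was 300 nL into about 60 µL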
T cruzi inh = blocks replication of Trypanosoma cruzi | T. cruzi beta-gal in NIH3T3, luminescence, 90 h | inhibition, % (test concentration not listed) | 1.4% of 300,000 active | AID 1885;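 active = mean inhibition across valid replicates above about 55%, limit read from the data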;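 note: signal also drops with host cell toxicity which is not excluded here; 0% = plate median of DMSO wells and 100% = zero luminescence signal; higher percent means less beta-gal luminescence so fewer parasites; stock transfer was 50 nL into about 50 µL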
MLL AF4-AF9 inh = blocks AF4 peptide binding to human AF9. P42568. AlphaScreen, biotin-AF4 peptide binding to FLAG-AF9. inhibition, % at 10 µM. 0.47% of 350,000 active. AID 651704;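 active = every replicate reaching a set inhibition limit, whatever the replicate mean, cut at about 25% in these data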;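 note: 0% = plate neutral control median and 100% = total signal loss; the record names both 10 and 1 µM as test concentration; the first replicate is given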
Target sequence (P42568 whole entry, looked up): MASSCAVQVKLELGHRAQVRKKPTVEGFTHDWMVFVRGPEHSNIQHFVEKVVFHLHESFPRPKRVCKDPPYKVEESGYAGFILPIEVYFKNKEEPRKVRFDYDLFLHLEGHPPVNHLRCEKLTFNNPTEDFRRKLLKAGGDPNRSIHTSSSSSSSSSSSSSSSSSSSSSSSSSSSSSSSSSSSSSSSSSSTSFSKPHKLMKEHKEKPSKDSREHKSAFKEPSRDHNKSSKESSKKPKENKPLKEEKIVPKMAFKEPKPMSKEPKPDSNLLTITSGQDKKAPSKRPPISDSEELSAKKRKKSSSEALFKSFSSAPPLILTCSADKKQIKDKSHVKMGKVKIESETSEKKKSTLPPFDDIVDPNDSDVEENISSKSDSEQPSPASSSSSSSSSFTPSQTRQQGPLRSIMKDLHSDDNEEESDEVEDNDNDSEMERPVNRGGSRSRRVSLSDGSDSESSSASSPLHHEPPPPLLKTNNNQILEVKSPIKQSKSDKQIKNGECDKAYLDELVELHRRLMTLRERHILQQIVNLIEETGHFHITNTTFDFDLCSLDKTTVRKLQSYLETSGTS
UCH37 DUB inh = inhibitors of human deubiquitinating enzyme UCH37. purified proteasome/UCH37, Ub-AMC cleavage fluorescence. 0.33% of 330,000 active. AID 588478. inhibition, % (no concentration beside the values). Q9Y5K5;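 active = mean of two replicates above 20%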;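 note: 0% = compound-free wells with enzyme and 100% = wells lacking proteasome; stock transfer was 100 nL into about 20 µL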
Target sequence (Q9Y5K5 whole entry, looked up): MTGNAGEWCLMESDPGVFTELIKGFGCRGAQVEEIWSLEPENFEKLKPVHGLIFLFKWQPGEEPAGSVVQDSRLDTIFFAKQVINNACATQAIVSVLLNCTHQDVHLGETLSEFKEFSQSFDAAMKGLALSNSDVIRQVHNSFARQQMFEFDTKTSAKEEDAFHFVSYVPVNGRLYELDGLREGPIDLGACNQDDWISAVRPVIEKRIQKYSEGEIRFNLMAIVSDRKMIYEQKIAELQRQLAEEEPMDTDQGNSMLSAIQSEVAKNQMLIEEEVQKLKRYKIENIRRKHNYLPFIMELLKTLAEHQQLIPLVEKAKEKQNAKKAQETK
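assay system = human UCH37 enzyme supplied as purified proteasome complex | amount = proteasome at 0.15 nM in the dispensed enzyme solution | schedule = 30 min compound-proteasome preincubation then 25 min substrate reaction, room temperature | measured by = fluorescence, ex 355 nm, em 460 nm | benchmarks = no-proteasome wells (full inhibition) and compound-free wells (no inhibition)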
Ecoli rRNA inh = inhibits bacterial ribosomal RNA function over humanized ribosomes; 1.6% of 350,000 active; E. coli WT GFP vs humanized-ribosome RFP mutants, fluorescence, 24 h; hits give low values; DMSO median 0, no signal -100; GFP signal change (wild-type ribosome), % (no concentration beside the values);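 active = significant combined selectivity score with lowered wild-type GFP, culture density cut under 30%, mutant RFP and density less affected; inactive = any of these conditions unmet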; note: one replicate is shown; some compounds called inactive have numbers as strong as hits
FGF22 binding = binders of recombinant human FGF22 by thermal shift. Q9HCT0. SYPRO orange fluorescence; percent of sucrose octasulfate shift, DMSO zero. calls only at 9.99 µM. 1.5% of 340,000 active. AID 651658;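 active = melting point raised past a set limit in the mean and every replicate; three in four hits are not shown here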
Target sequence (Q9HCT0 whole entry, looked up): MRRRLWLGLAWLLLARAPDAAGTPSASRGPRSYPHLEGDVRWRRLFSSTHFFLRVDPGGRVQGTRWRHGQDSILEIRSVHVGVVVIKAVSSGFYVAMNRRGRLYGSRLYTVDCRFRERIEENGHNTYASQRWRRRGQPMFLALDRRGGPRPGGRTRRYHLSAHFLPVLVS
Beta cell apopt = beta cell apoptosis inhibition. INS-1E cytokine-induced death, ATP luminescence, 48 h; percent of positive-control rescue, neutral wells zero. protection from apoptosis, % (no concentration beside the values). AID 435005. 0.8% of 300,000 active;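 active = all replicates at 75% or more, or half of them and the mean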;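 note: 0% = cytokine-treated negative control wells and 100% = positive control rescue; higher means more ATP so stronger rescue from cytokine killing; wells of about 40 µL received 100 nL stock; the first replicate is given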
Ecoli rRNA inh OD600 = recorded beside Ecoli rRNA inh, whose call it bears; OD600 change, %; measured here: OD600 growth;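 optical density of the mix in the first replicate; 0 = DMSO median and -100 = no signal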
Ecoli rRNA inh RFP = second read-out of Ecoli rRNA inh, no call of its own (marks repeat the call); RFP signal change, %; measured here: RFP humanized mutant strains;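 first replicate; 0 = DMSO median and -100 = no signal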
* marks the source's active call; other numbers are inactive results; i = inactive; . = not tested or not shown; & = joins results of further samples.

SMILES	Bfl-1 A1 inh	E coli growth	T cruzi inh	MLL AF4-AF9 inh	UCH37 DUB inh	Ecoli rRNA inh	Ecoli rRNA inh OD600	Ecoli rRNA inh RFP	FGF22 binding	Beta cell apopt
CCOc1ccc(CN(C)C(=O)CNC(=O)C2CCCCC2)cc1	1.1	0.676	2.0	-4.3	0.2	0.1	9.8	-0.1	i	-7.3
O=C(O)Cn1cc(/C=C2\SC(=O)N(c3ccccc3)C2=O)c2ccccc21	0.0	0.67	2.5	0.0	10.0	7.8	14.2	-9.8	i	.
O=C(CN(C(=O)CCC(=O)Nc1nccs1)c1cccc(F)c1)NCc1ccc(F)cc1	-0.2	0.652	3.3	0.1	0.0	7.9	7.1	-0.3	i	2.3
CC(=O)OCCNc1cc(Sc2nc3ccccc3[nH]2)c2nonc2c1[N+](=O)[O-]	1.1	0.733	55.7*	.	11.8	.	.	.	.	1.1
CCCOc1ccccc1N/C(=N/c1nc(C)cc(C)n1)NC(=O)COc1ccc(OC)cc1	-0.4	0.769	35.1	.	2.9	.	.	.	.	24.4
Cc1ccc(C)c(Cn2nnc3c(=O)[nH]c(C(=O)NCc4ccco4)nc32)c1	0.0	0.68	7.8	.	3.9	1.1	-1.9	0.1	.	-0.6
CN(CCC#N)C(=O)COc1ccc(Br)cc1Cl	0.0	0.632	-12.5	-0.8	1.4	13.2	9.4	-0.9	i	-8.6
COc1ccc(C(CNC(=O)c2cc(S(=O)(=O)Nc3cccc(C)c3)ccc2C)N2CCCC2)cc1 (centres undefined)	.	0.639	.	3.4	1.4	-0.6	5.3	2.0	.	.
COc1ccc(OC)c2c1cc(C(=O)N[C@@H](C)C(=O)N[C@@H](C(=O)O)c1ccccc1)n2C	0.9	0.677	-3.3	-3.3	0.2	-2.1	1.6	4.0	i	-4.2
N#CCCn1c(-c2nonc2NC(=O)c2ccccc2Cl)nc2ccccc21	-0.1	0.732	-11.1	.	-127.6	.	.	.	.	20.5
Cc1cnc(NC(=O)c2cc3c(C)nn(Cc4ccccc4Cl)c3s2)s1	-0.4	0.732	9.2	0.1	-56.8	9.8	4.5	1.3	i	-2.0
Cc1cc(C)nc(NS(=O)(=O)c2ccc(N)cc2)n1	0.1&1.6	0.715	-6.4	-3.4	2.1	.	.	.	i	3.6&7.7
Cc1ccc(NC(=O)COC(=O)Cc2c[nH]c3ccccc23)cc1F	.	0.675	.	4.6	3.9	-42.3	-43.5	0.2	i	.
CS(=O)(=O)Nc1ccc2c(c1)C(=O)OC2	.	0.664	-4.8	.	-0.3	.	.	.	.	-1.8
Cc1cc(C)nc(NC(=O)c2ccc(C)o2)n1	-0.5	0.705	-4.0	-1.6	0.1	12.3	11.8	1.4	i	-0.1
COc1cccc(-c2noc(-c3cccs3)n2)c1	-13.4	0.709	-1.0	.	1.0	.	.	.	.	4.3
CCN(c1ccccc1)S(=O)(=O)c1ccc(Cl)c(NC(=O)CSc2nnc(C)s2)c1	0.2	0.713	0.4	-3.3	5.8	-31.9*	-16.9*	-3.4*	i	1.5
O=C(Cn1cnc2cc(Cl)ccc2c1=O)Nc1ccc2c(c1)OCO2	0.1	0.717	-10.9	.	-0.4	.	.	.	.	-13.2
Cc1cc(Cl)ccc1OCC(=O)Nc1ccccc1C(=O)N1CCOCC1	-0.7	0.664	-3.0	0.6	-0.6	0.0	-8.0	-0.2	i	-5.2
CCOCCCNC(=O)C(c1ccc(OC)cc1)N(Cc1cccs1)C(=O)c1ccccc1O (centres undefined)	0.2	0.678	-6.0	0.2	1.1	-14.6	-18.7	0.6	i	2.7

Quoted at random: 3 entries already listed.
SMILES	Bfl-1 A1 inh	E coli growth	T cruzi inh	MLL AF4-AF9 inh	UCH37 DUB inh	Ecoli rRNA inh	Ecoli rRNA inh OD600	Ecoli rRNA inh RFP	FGF22 binding	Beta cell apopt
Cc1cnc(NC(=O)c2cc3c(C)nn(Cc4ccccc4Cl)c3s2)s1	-0.4	0.732	9.2	0.1	-56.8	9.8	4.5	1.3	i	-2.0
Cc1cc(Cl)ccc1OCC(=O)Nc1ccccc1C(=O)N1CCOCC1	-0.7	0.664	-3.0	0.6	-0.6	0.0	-8.0	-0.2	i	-5.2
CCN(c1ccccc1)S(=O)(=O)c1ccc(Cl)c(NC(=O)CSc2nnc(C)s2)c1	0.2	0.713	0.4	-3.3	5.8	-31.9*	-16.9*	-3.4*	i	1.5

The listing continues.
SMILES	Bfl-1 A1 inh	E coli growth	T cruzi inh	MLL AF4-AF9 inh	UCH37 DUB inh	Ecoli rRNA inh	Ecoli rRNA inh OD600	Ecoli rRNA inh RFP	FGF22 binding	Beta cell apopt
COc1cc2c(cc1OC)C(COc1ccc3c(C)cc(=O)oc3c1)N(C(=O)c1ccco1)CC2 (centres undefined)	-0.1	0.736	4.9	.	1.4	.	.	.	.	15.9
CCN(CC)CCSc1nc2ccccc2c(=S)n1-c1ccccc1	0.5	0.677	64.4*	34.0*	0.6	-5.9	-34.8	2.1	.	16.1
COc1cc(C(=O)NCC(c2ccco2)N2CCc3ccccc32)cc(OC)c1OC (centres undefined)	-0.1	0.678	-2.3	7.5	4.2	-8.4	-15.0	1.5	.	6.7
Cc1nnc2nc(-c3ccccc3)nc(-c3ccccc3)n12	-0.9	0.704	2.1	-0.5	-17.7	11.8	20.9	5.1	i	-5.0
CC(=O)NC(=O)COC(=O)c1ccc2ncsc2c1	0.0	0.659	-16.8	-0.7	-0.5	13.5	10.8	-0.3	i	-6.3
O=C(Cc1ccccc1)NNC1CC(=O)N(c2ccc(Br)cc2)C1=O (centres undefined)	0.2	0.619	3.7	-6.7	-0.9	10.2	11.0	-9.6	i	0.6
CS/C(Nc1cc(Cl)ccc1Cl)=C(/C#N)C(=O)c1ccco1	-7.5	0.71	-10.5	1.2	6.1	-50.9	-83.1	-6.8	.	-11.5
O=C(CSc1nc2ccccc2s1)N1c2ccccc2Sc2ccccc21	1.5	0.742	48.6	.	3.1	.	.	.	.	9.1
COc1cc(-c2nn3c(-c4cccc(C)c4)nnc3s2)cc(OC)c1OC	-0.8	0.694	16.5	.	-13.0	.	.	.	.	2.3
CCn1cc(C(=O)NCc2cccs2)c(=O)c2ccc(C)nc21	-0.5	0.713	4.0	.	0.8	.	.	.	.	3.7
CCCCSCc1ccc(C(=O)O)o1	0.0	0.714	-2.5	.	3.7	.	.	.	.	-12.8
COCCNC(=O)C1Nc2ccc(OC(F)(F)F)cc2C2C=CCC12 (centres undefined)	-1.2	0.663	-13.4	.	-2.3	.	.	.	.	-11.4
FC(F)(F)c1cccc(OCc2nnc3n2CCC3)c1	-0.6	0.676	-0.6	-0.7	1.6	4.6	4.5	-7.4	i	1.1
COC(=O)c1ccc(-n2cncn2)c(F)c1	0.3	0.719	-7.3	.	0.5	.	.	.	.	-2.7
Cc1nc2cccc(C(=O)NC3CCCCC3)c2o1	-0.1	0.744	-6.4	.	-6.1	.	.	.	.	-5.3
Cc1cccc(CSc2cccc3cccnc23)c1	-2.7	0.675	70.1*	.	-29.1	.	.	.	.	45.6
N#CC[C@H](Cc1ccccc1)N1CC[C@@H](NC(=O)OCc2ccccc2)CCC1=O	-0.7	.	5.5	-9.1	22.6*	3.9	10.2	6.7	i	0.9
COc1cc(NC(=O)c2cccs2)c(C(=O)OCC(=O)NC(=O)NC(C)(C)C)cc1OC	0.0	0.742	-5.3	.	-20.2	.	.	.	.	-8.2
O=C(Cn1cnc2ccccc2c1=O)c1ccccc1	0.4	0.637	2.1	.	1.1	.	.	.	.	-6.3
CC(C)C[C@@H](NC(=O)[C@H]1CCCN1C(=O)Cc1ccccc1)C(N)=O	0.1	0.667	-16.2	0.2	2.9	8.8	6.1	9.6	i	-5.2
Cc1ccc(N2C(=O)C(Cl)=C(N3CCOCC3)C2=O)cc1Cl	2.5	0.706	-22.3	.	4.0	.	.	.	.	-8.1
Cc1cc(N)n(Cc2cccs2)n1	-1.1	0.698	-15.7	-0.8	2.6	18.2	14.0	-3.6	i	-4.4
Cc1ccccc1C(=O)Nc1ccc(N2CCOCC2)nc1	0.4	0.709	-8.3	.	0.5	.	.	.	.	0.5
O=C1C2C(c3ccccc3)C=CC(c3ccccc3)C2C(=O)N1C1CCCCC1 (centres undefined)	0.6	0.788	5.6	.	2.9	.	.	.	.	6.4
CC1CN(C(=O)c2ccc(Oc3ccccc3)cc2)CC(C)O1 (centres undefined)	1.1	0.696	-7.3	0.0	4.3	-18.0	-14.3	-3.1	i	-6.5
COc1cccc2cc(C(=O)C3=C(O)C(=O)N(c4cc(C)on4)C3c3cccs3)oc12 (centres undefined)	-1.3	0.67	6.2	3.9	1.2	-25.6*	-14.2*	1.7*	i	2.6
COc1ccc(CN2CCN(S(=O)(=O)c3ccc(NC(C)=O)cc3)CC2)cc1	0.2	0.692	-0.6	-0.5	0.8	0.4	-1.8	1.2	i	-4.9
CN(Cc1ccccc1)C(=O)c1ccc(NC(=O)Cc2ccc(NC(=O)C3CCN(C(=O)c4ccccc4)CC3)cc2)cc1	.	0.678	.	12.0	-2.0	-6.5	-3.4	1.0	i	.
COc1ccc(-c2cn3cccnc3n2)cc1NC(=O)CC(C)C	0.5	0.67	-11.2	.	-197.3	.	.	.	.	0.7
COc1ccc(C2=Nn3c(nnc3-c3ccccc3OC)SC2)cc1OC	0.4	0.611	-63.6	.	6.9	.	.	.	.	22.2
Cc1c(Cl)cccc1NC(=O)c1cccc(OC(F)F)c1	0.2	0.71	-11.6	-49.6	-2.8	-23.8	-35.0	-5.7	i	0.0
O=C(NCc1ccncc1)c1cc(-c2ccc(Cl)cc2)oc1C(F)(F)F	-0.3	0.676	-12.8	-1.6	2.3	.	.	.	i	16.0
O=C(CN(C(=O)C1COc2ccccc2O1)c1ccccc1)NCC1CCCO1 (centres undefined)	-1.5	0.685	1.3	.	1.4	.	.	.	.	-0.6
Cc1ccc(OCCNC(=O)Cn2cnc3c(=O)n(C)c(=O)n(C)c32)cc1C	1.2	0.674	-6.3	.	0.9	.	.	.	.	-3.8
Cc1cnc(NC(=O)Cn2cnc3c2c(=O)n(C)c(=O)n3C)s1	1.4	0.727	-17.1	0.1	2.1	13.1	2.6	-4.8	i	-12.0
CN(Cc1ccsc1)C(=O)CCc1nnc(CCCc2ccccc2)o1	0.6	0.685	-5.8	-0.8	3.0	2.5	-5.5	3.0	i	-6.1
O=C(CC12CC3CC(CC(C3)C1)C2)NCC(c1ccc(F)cc1)N1CCOCC1 (centres undefined)	-0.9	0.657	2.2	-0.2	3.7	-32.4	-60.0	2.3	i	-1.3
Cc1ccc(S(=O)(=O)NCCC(=O)N2CCOCC2)cc1C	0.3	0.696	-10.7	-0.9	-1.7	4.8	16.6	1.9	i	.
CCOc1ccc(-c2c(C(=O)N/N=C/c3ccccc3)nnn2-c2nonc2N)cc1	0.0	.	-4.6	3.0	.	11.2	12.5	4.2	i	-11.1
COc1ccc(Nc2nc(-c3cccs3)cs2)cc1	-5.4	0.718	10.0	.	-8.6	.	.	.	.	-5.9
Cc1cccc(C)c1OCc1cc(C(=O)NCc2ccc(Cl)s2)no1	0.0	0.656	24.4	-4.3	3.7	5.6	-15.0	5.5	i	-2.1

Not all compounds are listed (hit frequency here may not be typical).
